B2AR ag = agonists of human beta-2 adrenergic receptor inducing internalization. P07550. Am2.2-beta2AR cells, FAP receptor internalization, flow cytometry; reference of the scale not given here. response, % (concentration not given with the values). 340,000 compounds, 0.43% hits. AID 504454;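 active = response above a set limit, near 3 SD of response in nonfluorescent compounds, cut at about 42% in these data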;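 note: stock transfer was 100 nL into about 11 µL; a reference agonist was the positive control; negative values mostly stem from fluorescent compounds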
Target sequence (P07550 whole entry, looked up): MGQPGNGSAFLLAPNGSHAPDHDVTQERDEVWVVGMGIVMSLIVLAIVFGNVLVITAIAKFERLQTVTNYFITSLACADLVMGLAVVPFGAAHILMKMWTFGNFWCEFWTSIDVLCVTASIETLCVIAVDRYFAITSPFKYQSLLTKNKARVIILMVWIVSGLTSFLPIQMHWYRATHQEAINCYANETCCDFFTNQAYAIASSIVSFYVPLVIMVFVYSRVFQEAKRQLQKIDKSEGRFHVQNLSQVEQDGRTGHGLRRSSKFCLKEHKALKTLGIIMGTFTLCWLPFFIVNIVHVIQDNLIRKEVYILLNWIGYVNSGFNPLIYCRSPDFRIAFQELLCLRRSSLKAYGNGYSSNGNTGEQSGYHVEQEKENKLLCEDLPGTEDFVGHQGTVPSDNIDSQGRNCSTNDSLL
A1 inh = inhibitors of the anti-apoptotic protein A1, read as caspase activation. AID 2462. MEF A1-2A-BIM cells, Caspase-Glo 3/7 luminescence, 3 h; percent of clofoctol response, vehicle zero. 330,000 compounds, 0.066% hits. caspase activation, % (test concentration not listed);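 active = over half of replicate activation scores above 10%, or exactly half above 10 with the replicate mean above 10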;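 note: wells of about 30 µL received 50 nL stock; many hits fall short of the cut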
Calb FLC = C. albicans growth modulation with fluconazole. C. albicans CaCi-2 (fluconazole-resistant clinical isolate) + fluconazole, Alamar Blue growth, 48 h. growth inhibition, % (test concentration not listed). 300,000 compounds, 0.57% hits;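 active = most replicates above 75%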;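 note: all wells also contain fluconazole at 8 µg/ml as a sub-toxic cotreatment; 0% = median of DMSO wells and 100% = median of geldanamycin control wells; wells of about 8 µL received 7.5 nL stock; the first replicate is given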
ALR H2O2 inh = human ALR oxidase inhibition via reduced H2O2; P55789; purified ALR, DTT oxidation, H2O2 HRP-luminol luminescence; inhibition, % (concentration not given with the values); 290,000 compounds, 3.8% hits; AID 485317;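 active = mean and each replicate at 75% or more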;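 note: stock transfer was 7.5 nL into about 7.5 µL; 0% = neutral wells and 100% = wells with inactivated enzyme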
Target sequence (P55789 whole entry, looked up): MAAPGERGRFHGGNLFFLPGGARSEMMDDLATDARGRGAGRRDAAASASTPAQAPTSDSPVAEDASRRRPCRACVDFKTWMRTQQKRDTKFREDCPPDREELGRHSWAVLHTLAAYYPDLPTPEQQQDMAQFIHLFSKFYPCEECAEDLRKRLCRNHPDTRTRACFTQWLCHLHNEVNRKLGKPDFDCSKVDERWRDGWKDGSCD
Beta cell apopt = blocks beta cell apoptosis; protection from apoptosis, % (no concentration beside the values); INS-1E cytokine-induced death, ATP luminescence, 48 h; percent of positive-control rescue, neutral wells zero; 300,000 compounds, 0.8% hits;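 active = all replicates at 75% or more, or half of them and the mean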;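 note: 0% = cytokine-treated negative control wells and 100% = positive control rescue; higher means more ATP so stronger rescue from cytokine killing; wells of about 40 µL received 100 nL stock; the first replicate is given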
rRNA inh HTS = selective bacterial rRNA inhibition in E. coli; E. coli WT GFP vs humanized-ribosome RFP mutants, fluorescence, 24 h; stronger effect = lower value; DMSO median 0, no signal -100; GFP signal change (wild-type ribosome), % (no concentration beside the values); 350,000 compounds, 1.6% hits;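 active = significant combined selectivity score with lowered wild-type GFP, culture density cut under 30%, mutant RFP and density less affected; inactive = any of these conditions unmet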; note: one replicate is shown; some compounds called inactive have numbers as strong as hits
T cruzi repl = blocks replication of Trypanosoma cruzi; inhibition, % (concentration not given with the values); AID 1885; T. cruzi beta-gal in NIH3T3, luminescence, 90 h; 300,000 compounds, 1.4% hits;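 active = mean inhibition across valid replicates above about 55%, limit read from the data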;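 note: signal also drops with host cell toxicity which is not excluded here; 0% = plate median of DMSO wells and 100% = zero luminescence signal; higher percent means less beta-gal luminescence so fewer parasites; stock transfer was 50 nL into about 50 µL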
LANA-H2B inh = blocks KSHV LANA binding to histone H2A/H2B | cell-free LANA-H2A/H2B peptide, fluorescence polarization | Q9QR71 | inhibition, % (test concentration not listed) | 320,000 compounds, 0.6% hits | AID 2629; in the data active = inhibition mostly above about 10%, no sharp cut-off; inactive = mostly below about 6.7%;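 note: stock transfer was 7.5 nL into about 10 µL; 0% = median of vehicle wells and 100% = median of positive control wells; one replicate is shown; the record names a cut of 25% in any replicate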
rRNA inh HTS OD600 = recorded beside rRNA inh HTS, whose call it bears; OD600 change, %; measured here: OD600 growth;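 optical density of the mix in the first replicate; 0 = DMSO median and -100 = no signal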
rRNA inh HTS RFP = also measured in rRNA inh HTS; calls as there; RFP signal change, %; measured here: RFP humanized mutant strains;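 first replicate; 0 = DMSO median and -100 = no signal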
* hit, by the source's call.

Results for CCCCC12CN3CCN(CC(C3)/C1=N\NC(=O)c1ccccc1N)C2 ?
B2AR ag: -0.4; A1 inh: 1.2; Calb FLC: -12.3; ALR H2O2 inh: 0.3; Beta cell apopt: -0.7; T cruzi repl: 4.1; LANA-H2B inh: -1.8

How did CC1CN(CC(O)COc2ccc(C(C)C)cc2)CC(C)O1 (stereo not drawn) do in these assays?
B2AR ag: 3.8; A1 inh: 0.5; Calb FLC: -28.3; ALR H2O2 inh: 0.6; Beta cell apopt: -3.8; T cruzi repl: -5.7; LANA-H2B inh: 5.7

What do the screens show for `O=C(Nc1ccccc1)C1=C(O)CC(c2ccoc2)CC1=Nc1ccccc1` (stereo not drawn)?
B2AR ag: -14.3; A1 inh: 1.0; Calb FLC: -9.2; Beta cell apopt: -1.6; T cruzi repl: 22.2; LANA-H2B inh: 2.3

How did CN(C(=O)CSc1nc2ccccc2c(=O)n1C)C1CCS(=O)(=O)C1 (stereo not drawn) do in these assays?
B2AR ag: 5.4; A1 inh: -1.0; ALR H2O2 inh: -1.9; Beta cell apopt: -7.2; rRNA inh HTS: 7.4; LANA-H2B inh: 20.1*; rRNA inh HTS OD600: 6.4; rRNA inh HTS RFP: 4.4

What do the screens show for `Cc1ccc(N(Cc2ccc(C(=O)NCCSc3ccccn3)cc2)S(C)(=O)=O)cc1C`?
B2AR ag: 11.0; A1 inh: 0.6; Calb FLC: 37.1; ALR H2O2 inh: -11.1; Beta cell apopt: 4.0; T cruzi repl: 10.9; LANA-H2B inh: -1.4

Results for C=CCNC(=O)c1ccccc1NC(=O)COc1ccc(OC)cc1 ?
B2AR ag: 0.8; A1 inh: 0.4; Calb FLC: 9.7; ALR H2O2 inh: -3.0; Beta cell apopt: -3.0; rRNA inh HTS: 10.9; T cruzi repl: -9.7; LANA-H2B inh: -0.1; rRNA inh HTS OD600: 0.2; rRNA inh HTS RFP: -3.7

Results for COc1ccc(Cl)cc1C1=CC(=O)C[C@H](c2ccc(F)cc2)C1 ?
B2AR ag: -16.2; A1 inh: 0.2; ALR H2O2 inh: 1.1; Beta cell apopt: 4.2; rRNA inh HTS: -29.9; LANA-H2B inh: 0.6; rRNA inh HTS OD600: -40.0; rRNA inh HTS RFP: -3.7

How did O=[N+]([O-])c1cccc(CN2[C@@H](Cc3ccccc3)COCCS2(=O)=O)c1 do in these assays?
B2AR ag: -0.3; A1 inh: 0.7; Calb FLC: -5.0; ALR H2O2 inh: 9.4; Beta cell apopt: -4.4; T cruzi repl: 7.5; LANA-H2B inh: 1.3

What do the screens show for `CN(C)CC(C)(C)CNC(=O)C1CCN(CCCc2ccccc2)CC1`?
B2AR ag: -2.7; A1 inh: 0.0; Calb FLC: 1.1; ALR H2O2 inh: -8.7; Beta cell apopt: -7.0; rRNA inh HTS: 14.2; T cruzi repl: -6.1; LANA-H2B inh: 2.5; rRNA inh HTS OD600: 9.7; rRNA inh HTS RFP: 0.3

How did C#CCN(Cc1ccccc1)S(=O)(=O)C=C do in these assays?
A1 inh: -1.0; ALR H2O2 inh: -0.6; Beta cell apopt: -13.3; rRNA inh HTS: 12.1; LANA-H2B inh: 2.1; rRNA inh HTS OD600: 8.1; rRNA inh HTS RFP: 10.3

How did O=C(NN1C(=O)c2ccccc2NC1c1ccco1)c1ccc(Br)cc1 (stereo not drawn) do in these assays?
B2AR ag: -12.9; A1 inh: 1.4; Calb FLC: 2.7; ALR H2O2 inh: -1.7; Beta cell apopt: 6.5; rRNA inh HTS: -5.0; T cruzi repl: -9.4; LANA-H2B inh: 2.6; rRNA inh HTS OD600: -17.4; rRNA inh HTS RFP: -9.0

Results for CCOCc1c(C(=O)OCC(=O)/C(C#N)=C(\C)N)oc2ccccc12 ?
B2AR ag: 3.3; A1 inh: 0.2; Calb FLC: -2.1; Beta cell apopt: 3.7; rRNA inh HTS: -2.6; LANA-H2B inh: -4.8; rRNA inh HTS OD600: 3.2; rRNA inh HTS RFP: -1.4

Results for Cc1ccc(C(=O)C(C)Sc2nnc(N)s2)cc1 (stereo not drawn) ?
B2AR ag: -1.8; A1 inh: -0.4; Calb FLC: 18.7; ALR H2O2 inh: -3.3; Beta cell apopt: -0.9; rRNA inh HTS: 6.6; T cruzi repl: 8.8; LANA-H2B inh: 2.2; rRNA inh HTS OD600: 7.0; rRNA inh HTS RFP: -0.4

Results for CC(=O)C1=C(C)N(Cc2ccccc2)C(=O)N[C@@H]1c1cccc(C(F)(F)F)c1 ?
B2AR ag: 13.3; A1 inh: 1.3; Calb FLC: -0.6; ALR H2O2 inh: 2.2; Beta cell apopt: 3.0; rRNA inh HTS: -20.7*; T cruzi repl: -2.2; LANA-H2B inh: -0.3; rRNA inh HTS OD600: -15.6*; rRNA inh HTS RFP: 4.3*

How did CCC(=O)N1CCC2(CC1)Oc1ccc(F)cc1C(=O)C21CC(c2ccc(Cl)cc2)=NO1 (stereo not drawn) do in these assays?
B2AR ag: 4.5; A1 inh: 0.2; Calb FLC: 11.0; ALR H2O2 inh: -4.0; Beta cell apopt: -1.0; rRNA inh HTS: -3.1; T cruzi repl: 21.3; LANA-H2B inh: 0.3; rRNA inh HTS OD600: -22.5; rRNA inh HTS RFP: -1.0

What do the screens show for `COC(=O)c1ccc(-n2nnnc2SCC(=O)N2CCCCC2)cc1`?
B2AR ag: -2.3; Calb FLC: 0.5; ALR H2O2 inh: -7.6; Beta cell apopt: -3.7; rRNA inh HTS: -7.0; T cruzi repl: -13.4; LANA-H2B inh: -3.3; rRNA inh HTS OD600: 0.3; rRNA inh HTS RFP: -2.7

What do the screens show for `CN1CCN(c2ccc(Cl)cc2NC(=O)c2ccc(S(=O)(=O)N(C)C)cc2)CC1`?
B2AR ag: 4.0; A1 inh: -0.4; Calb FLC: -33.3; ALR H2O2 inh: -9.8; Beta cell apopt: -0.4; T cruzi repl: 14.5; LANA-H2B inh: -3.8

Results for OCCNCc1cc(Br)ccc1OCc1ccc(F)cc1 ?
B2AR ag: -4.1; A1 inh: -0.3; Calb FLC: -6.9; ALR H2O2 inh: -17.9; Beta cell apopt: 2.7; rRNA inh HTS: 16.0; T cruzi repl: 14.7; LANA-H2B inh: -1.3; rRNA inh HTS OD600: 6.6; rRNA inh HTS RFP: 1.1

How did Cc1ccc(NC(=O)c2c(F)cccc2Cl)cc1S(=O)(=O)N1CCOCC1 do in these assays?
B2AR ag: 7.4; A1 inh: -0.7; ALR H2O2 inh: 2.2; Beta cell apopt: 1.9; rRNA inh HTS: -2.1; LANA-H2B inh: -1.5; rRNA inh HTS OD600: -14.3; rRNA inh HTS RFP: -1.2

How did Cc1ccc(NC(=O)c2ccc(Cl)c(S(=O)(=O)N3CCCCC3)c2)nc1 do in these assays?
B2AR ag: -4.7; A1 inh: -1.1; ALR H2O2 inh: -4.1; Beta cell apopt: -20.9; rRNA inh HTS: -3.6; LANA-H2B inh: 0.3; rRNA inh HTS OD600: -4.2; rRNA inh HTS RFP: 2.2

Results for O=C(Cc1ccc(N2CCNC2=O)cc1)N1CCCC(Nc2ccc(F)c(F)c2)C1 (stereo not drawn) ?
B2AR ag: -8.4; A1 inh: 0.5; Calb FLC: 2.4; ALR H2O2 inh: 20.2; Beta cell apopt: 2.2; rRNA inh HTS: -8.4; T cruzi repl: 22.3; LANA-H2B inh: -4.8; rRNA inh HTS OD600: -12.2; rRNA inh HTS RFP: 0.8

Results for CCC(C)C(NC(=O)C1CCC(C)CC1)C(=O)NCc1ccccn1 (stereo not drawn) ?
B2AR ag: -6.9; A1 inh: -0.1; Calb FLC: -5.7; Beta cell apopt: -1.0; T cruzi repl: -13.6; LANA-H2B inh: -2.4

How did Cc1cc(C)c2c(CC(=O)N(CCC#N)Cc3cccnc3)coc2c1 do in these assays?
B2AR ag: -3.0; A1 inh: 0.1; Calb FLC: -1.1; ALR H2O2 inh: -0.7; T cruzi repl: 34.2; LANA-H2B inh: -4.2

How did O=C(CN1CCC(C(=O)c2ccc(F)cc2)CC1)Nc1ccc(F)cc1 do in these assays?
B2AR ag: 0.2; A1 inh: -2.3; Calb FLC: -17.6; ALR H2O2 inh: -0.8; Beta cell apopt: 1.9; T cruzi repl: -9.7; LANA-H2B inh: -2.9

What do the screens show for `CC(=O)c1c(O)cc(O)c(C(C)=O)c1O`?
B2AR ag: 0.5; A1 inh: 0.5; Calb FLC: -0.3; ALR H2O2 inh: -4.9; T cruzi repl: 26.1; LANA-H2B inh: -6.5

How did O=C(CCCSc1nnnn1-c1cccc2ccccc12)c1ccc(F)cc1 do in these assays?
B2AR ag: 7.2; A1 inh: -1.9; Calb FLC: -2.9; ALR H2O2 inh: -16.0; Beta cell apopt: 1.7; T cruzi repl: 15.6; LANA-H2B inh: -5.2

What do the screens show for `CC(=O)Oc1ccc(-c2cccc(C(=O)N(C)c3ccc(O)cc3)c2)cc1`?
B2AR ag: 0.6; A1 inh: 1.4; Calb FLC: -3.6; ALR H2O2 inh: 86.2*; Beta cell apopt: -4.7; rRNA inh HTS: -23.9; T cruzi repl: -37.3; LANA-H2B inh: 0.0; rRNA inh HTS OD600: -27.2; rRNA inh HTS RFP: -4.6

How did Cc1c(Cc2ccccc2)sc(/N=C/c2c(O)ccc3ccccc23)c1C(N)=O do in these assays?
B2AR ag: 8.2; A1 inh: 0.2; Calb FLC: 48.0; ALR H2O2 inh: -19.2; Beta cell apopt: -3.1; T cruzi repl: -12.2; LANA-H2B inh: -4.0

Results for CC(NC(=O)c1ccccc1)C(=O)NC1=NCCS1 (stereo not drawn) ?
B2AR ag: -0.7; A1 inh: -0.9; Calb FLC: 6.5; ALR H2O2 inh: 19.6; Beta cell apopt: -12.1; T cruzi repl: -9.5; LANA-H2B inh: -2.7

How did O=C(OCCNC(=O)c1ccc2ccccc2n1)c1ccc(F)cc1 do in these assays?
B2AR ag: 12.5; A1 inh: 0.8; Calb FLC: -7.4; ALR H2O2 inh: -0.5; Beta cell apopt: -7.3; T cruzi repl: 2.7; LANA-H2B inh: 0.1

What do the screens show for `NC(=O)C1CCN(CC(=O)Nc2ccccc2C(=O)NC2CC2)CC1`?
B2AR ag: 8.2; A1 inh: -0.1; ALR H2O2 inh: -2.1; Beta cell apopt: 0.3; LANA-H2B inh: 3.0

Results for CC1CCN(C(=O)c2ccc(NC(=O)c3ccccc3)cc2)CC1 ?
B2AR ag: 4.5; A1 inh: -2.7; Calb FLC: -2.6; ALR H2O2 inh: -8.8; rRNA inh HTS: -0.8; T cruzi repl: -1.2; LANA-H2B inh: 1.9; rRNA inh HTS OD600: 2.6; rRNA inh HTS RFP: 2.9

How did Cc1cc(-c2n[nH]c(=S)n2/N=C/c2ccc(C)s2)n[nH]1 do in these assays?
B2AR ag: -37.2; A1 inh: 0.3; Calb FLC: -0.8; ALR H2O2 inh: 18.7; Beta cell apopt: -7.5; T cruzi repl: -15.8; LANA-H2B inh: 0.9

What do the screens show for `CC(C)(CNC(=O)c1ccc(Br)o1)N1CCOCC1`?
B2AR ag: -3.6; A1 inh: -0.7; Calb FLC: -4.5; ALR H2O2 inh: -7.5; Beta cell apopt: -3.1; rRNA inh HTS: 8.4; T cruzi repl: -7.5; LANA-H2B inh: -2.5; rRNA inh HTS OD600: 10.4; rRNA inh HTS RFP: -1.7

Screening results from PubChem BioAssay.

A portion of the library (hit frequency here may not be typical).
